Assay outcomes (PubChem)
A1 apoptosis 2: compounds inhibiting A1, read as caspase activation; MEF A1-2A-BIM cells, caspase-Glo luminescence, 3 h; percent of clofoctol response, DMSO zero; caspase activation, % (test concentration not listed); 24,000 tested, under 10 active; in the data active means caspase activation above about 5.9%;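 further: wells of about 30 µL received 50 nL stock; the first replicate is given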
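Material: mouse embryonic fibroblasts co-expressing A1 and BIM (A1-2A-BIM), primed for A1 dependence / Quantity: 2500 cells/well / Buffer or medium: RPMI-1640 growth medium with 10% FBS / Doses: 50 nL compound per well, pinned / Schedule: 3 h compound exposure at 37 °C / Signal: Caspase-Glo luminescence (DEVD substrate) / Measure: Caspase-3/7 activation, seen as rise in luminescence signal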
* = called active by the depositor. An excerpt; the hit share may differ from the screen's.

SMILES | A1 apoptosis 2
C[C@H](CO)N1C[C@H](C)[C@H](CN(C)S(=O)(=O)c2ccccc2)Oc2ncc(-c3ccccc3)cc2C1=O | 1.7
C[C@H](CO)N1C[C@H](C)[C@@H](CN(C)Cc2ccccc2)Oc2ccc(NC(=O)c3ccncc3)cc2C1=O | 0.0
CC(C)NC(=O)N(C)C[C@H]1OCCCC[C@H](C)Oc2ccc(NS(=O)(=O)c3ccc(Cl)cc3)cc2C(=O)N([C@@H](C)CO)C[C@@H]1C | -0.2
C[C@H](CO)N1C[C@H](C)[C@@H](CN(C)S(=O)(=O)c2cccs2)OCCCC[C@H](C)Oc2ccc(NS(=O)(=O)c3cccs3)cc2C1=O | -1.3
C[C@H]1CN([C@@H](C)CO)C(=O)c2cc(NC(=O)c3ccncc3)ccc2O[C@H]1CN(C)Cc1ccc(C(F)(F)F)cc1 | -0.2
Cc1ccc(S(=O)(=O)Nc2ccc3c(c2)C(=O)N([C@@H](C)CO)C[C@H](C)[C@H](CN(C)C(=O)Nc2ccccc2)O3)cc1 | -0.5
C[C@H]1CCCCO[C@H](CN(C)Cc2ccc3c(c2)OCO3)[C@@H](C)CN([C@@H](C)CO)C(=O)c2cc(NC(=O)c3ccncc3)ccc2O1 | 0.6
C[C@@H]1CN([C@@H](C)CO)C(=O)c2cccc(NC(=O)C3CC3)c2O[C@H]1CN(C)C(=O)Nc1ccccc1 | -0.9
N#Cc1ccc(/C=N/NC(=O)c2ccccc2O)cc1 | -5.9
Cc1noc(C)c1NC(=O)N(C)C[C@@H]1Oc2c(NS(=O)(=O)c3ccccc3)cccc2C(=O)N([C@@H](C)CO)C[C@H]1C | -0.5
CNC[C@H]1OCCCC[C@@H](C)Oc2ccc(NC(=O)Cc3ccccc3)cc2C(=O)N([C@H](C)CO)C[C@@H]1C | -0.2
C[C@@H]1CN([C@H](C)CO)C(=O)c2cc(NC(=O)Cc3ccccc3)ccc2O[C@@H](C)CCCCO[C@@H]1CN(C)C(=O)c1ccccc1 | 0.5
Cc1cccc(CN(C)C[C@@H]2Oc3ncc(C#Cc4ccccc4)cc3C(=O)N([C@H](C)CO)C[C@@H]2C)c1 | 0.4
CC(C)NC(=O)N(C)C[C@@H]1OCCCC[C@@H](C)Oc2ccc(N(C)C)cc2C(=O)N([C@H](C)CO)C[C@@H]1C | 0.7
COc1ccc(NC(=O)N(C)C[C@H]2Oc3c(NC(=O)c4ccc(-c5nccs5)cc4)cccc3C(=O)N([C@H](C)CO)C[C@@H]2C)cc1 | 0.8
C[C@@H]1CN([C@H](C)CO)C(=O)c2cccc(NC(=O)C3CCCCC3)c2O[C@@H]1CN(C)Cc1ccc(Oc2ccccc2)cc1 | -1.4
[N-]=[N+]=NCc1ccccc1C[C@@]1(C(=O)NCCN2CCOCC2)N=C(c2ccc(OCCCO)cc2)O[C@@H]1c1ccccc1 | 0.0
C[C@@H]1CN([C@@H](C)CO)C(=O)c2cc(NS(=O)(=O)c3ccc(F)cc3)ccc2O[C@@H](C)CCCCO[C@@H]1CN(C)S(=O)(=O)c1cccs1 | 0.5
C[C@@H]1CN([C@H](C)CO)C(=O)c2cc(N(C)C)ccc2O[C@@H](C)CCCCO[C@@H]1CN(C)Cc1ccccc1 | -1.0
C[C@@H]1CN([C@@H](C)CO)C(=O)CCCn2nncc2CO[C@@H]1CN(C)C(=O)Nc1ccc(C(F)(F)F)cc1 | 0.6
Cc1noc(C)c1S(=O)(=O)N(C)C[C@H]1Oc2ccc(NS(=O)(=O)c3ccc(F)cc3)cc2CC(=O)N([C@H](C)CO)C[C@H]1C | 1.5
C[C@@H]1CN([C@@H](C)CO)C(=O)c2cccc(NC(=O)c3nc4ccccc4s3)c2O[C@H]1CN(C)S(=O)(=O)c1cccs1 | -0.2
C[C@H](CO)N1C[C@H](C)[C@@H](CN(C)CC2CCCCC2)OCCCC[C@H](C)Oc2ccc(NC(=O)CCCCCC(=O)Nc3ccccc3N)cc2C1=O | 0.2
Cc1noc(C)c1S(=O)(=O)Nc1cccc2c1O[C@@H](CN(C)S(=O)(=O)c1cn(C)cn1)[C@@H](C)CN([C@H](C)CO)C2=O | -0.3
CC(C)NC(=O)Nc1ccc2c(c1)C(=O)N([C@H](C)CO)C[C@H](C)[C@@H](CN(C)S(=O)(=O)c1ccc(Cl)cc1)OCCCC[C@@H](C)O2 | 0.8
Going on with the list.
SMILES | A1 apoptosis 2
C[C@H]1CCCCO[C@@H](CN(C)S(=O)(=O)c2cccs2)[C@@H](C)CN([C@@H](C)CO)C(=O)c2cc(NS(=O)(=O)c3ccc(Cl)cc3)ccc2O1 | -0.2
C[C@@H]1CN([C@H](C)CO)C(=O)Cc2cc(NC(=O)Nc3ccccc3)ccc2O[C@H]1CN(C)C(=O)Nc1ccc2c(c1)OCO2 | -0.6
C[C@@H]1CN([C@@H](C)CO)C(=O)c2cc(NS(=O)(=O)c3cn(C)cn3)ccc2O[C@@H](C)CCCCO[C@@H]1CN(C)C(=O)c1ccccc1 | -1.1
C[C@@H]1CCCCO[C@@H](CN(C)S(=O)(=O)c2ccccc2)[C@@H](C)CN([C@H](C)CO)C(=O)c2cc(NC(=O)Nc3ccccc3)ccc2O1 | 0.0
C[C@@H]1CCCCO[C@@H](CN(C)CC2CC2)[C@@H](C)CN([C@@H](C)CO)C(=O)c2cc(NS(=O)(=O)c3cccs3)ccc2O1 | -0.6
C[C@@H]1CN([C@@H](C)CO)C(=O)Cc2cc(NC(=O)Nc3ccc4c(c3)OCO4)ccc2O[C@@H]1CN(C)S(=O)(=O)c1cn(C)cn1 | 1.2
Cc1noc(C)c1NC(=O)Nc1ccc2c(c1)C(=O)N([C@@H](C)CO)C[C@H](C)[C@@H](CN(C)Cc1ccc(-c3ccccc3)cc1)O2 | 0.1
COc1ccc(NC(=O)N(C)C[C@H]2Oc3ccc(NC(=O)CCCCCC(=O)Nc4ccccc4N)cc3C(=O)N([C@H](C)CO)C[C@H]2C)cc1 | -0.3
COc1ccc(S(=O)(=O)N(C)C[C@@H]2OCCCC[C@@H](C)Oc3ccc(NS(C)(=O)=O)cc3C(=O)N([C@H](C)CO)C[C@@H]2C)cc1 | 0.5
CCCN(C)C[C@@H]1OCCCC[C@H](C)Oc2ccc(NC(=O)c3ccccc3)cc2C(=O)N([C@@H](C)CO)C[C@@H]1C | -0.5
C[C@@H]1CN([C@H](C)CO)C(=O)CCCn2cc(nn2)CO[C@@H]1CN(C)Cc1ccc2c(c1)OCCO2 | -0.8
COc1cc2c(cc1O)C(C1CC1)N(C)CC2 (stereo not drawn) | -1.0
Cc1noc(C)c1S(=O)(=O)Nc1ccc2c(c1)C(=O)N([C@@H](C)CO)C[C@@H](C)[C@H](CN(C)C(=O)Nc1ccccc1)OCCCC[C@@H](C)O2 | -0.5
O=c1n(-c2ccccc2)c(=O)n2n1CC(COc1ccccc1)=C1[C@@H](CCc3ccccc3)OB(O)C[C@@H]12 | -0.1
C[C@@H]1CN([C@H](C)CO)C(=O)Cc2cc(NC(=O)CCN3CCOCC3)ccc2O[C@H]1CN(C)C(=O)Nc1ccc(C(F)(F)F)cc1 | -0.9
Cc1noc(C)c1NC(=O)Nc1ccc2c(c1)C(=O)N([C@H](C)CO)C[C@H](C)[C@@H](CN(C)Cc1ccc3c(c1)OCO3)OCCCC[C@@H](C)O2 | 1.3
C[C@@H]1CN([C@@H](C)CO)C(=O)c2cc(NC(=O)c3ccncc3)ccc2O[C@@H](C)CCCCO[C@@H]1CN(C)S(=O)(=O)c1ccc(F)cc1 | -1.3
COc1ccc(S(=O)(=O)N(C)C[C@@H]2Oc3ccc(NC(=O)C4CCCCC4)cc3CC(=O)N([C@@H](C)CO)C[C@@H]2C)cc1 | 0.0
CNC[C@@H]1Oc2c(NC(=O)C3CC3)cccc2C(=O)N([C@@H](C)CO)C[C@@H]1C | 1.0
C[C@@H]1CN([C@H](C)CO)C(=O)Cc2cc(NS(=O)(=O)c3ccccc3)ccc2O[C@@H]1CN(C)Cc1ccc(C(=O)O)cc1 | 0.2
C#CCNC(=O)C1=C[C@@H](c2ccccc2)C[C@@H](OCc2ccc(CO)cc2)O1 | -0.4
CNC[C@H]1Oc2ccc(NC(=O)Nc3ccc4c(c3)OCO4)cc2CC(=O)N([C@@H](C)CO)C[C@@H]1C | -0.7
C=CCOC(=O)[C@@H]1[C@H]2C(=O)O[C@H](c3ccccc3)[C@H](c3ccccc3)N2[C@H](c2ccc(OCCOC(=O)[C@@H]3C[C@@H]4C(=O)N5CCC[C@H]5C(=O)N4[C@@H]3c3ccc(O)cc3)cc2)[C@@]12C(=O)Nc1ccc(I)cc12 | 0.5
C[C@H](CO)N1C[C@H](C)[C@H](CN(C)Cc2ccc3c(c2)OCO3)Oc2ccc(NC(=O)Cn3cnnn3)cc2CC1=O | -0.4
O=C1O[C@H](c2ccccc2)[C@H](c2ccccc2)N2[C@H]1[C@@H](C(=O)N1CCCCCCC1)[C@]1(C(=O)Nc3ccccc31)[C@H]2c1ccc(O)cc1 | -0.5

Another view of part of the listing above:
SMILES,A1 apoptosis 2
Cc1noc(C)c1NC(=O)Nc1ccc2c(c1)C(=O)N([C@H](C)CO)C[C@H](C)[C@@H](CN(C)Cc1ccc3c(c1)OCO3)OCCCC[C@@H](C)O2,1.3
C[C@@H]1CN([C@@H](C)CO)C(=O)c2cc(NC(=O)c3ccncc3)ccc2O[C@@H](C)CCCCO[C@@H]1CN(C)S(=O)(=O)c1ccc(F)cc1,-1.3
COc1ccc(S(=O)(=O)N(C)C[C@@H]2Oc3ccc(NC(=O)C4CCCCC4)cc3CC(=O)N([C@@H](C)CO)C[C@@H]2C)cc1,0.0
CNC[C@@H]1Oc2c(NC(=O)C3CC3)cccc2C(=O)N([C@@H](C)CO)C[C@@H]1C,1.0
C[C@@H]1CN([C@H](C)CO)C(=O)Cc2cc(NS(=O)(=O)c3ccccc3)ccc2O[C@@H]1CN(C)Cc1ccc(C(=O)O)cc1,0.2
C#CCNC(=O)C1=C[C@@H](c2ccccc2)C[C@@H](OCc2ccc(CO)cc2)O1,-0.4
CNC[C@H]1Oc2ccc(NC(=O)Nc3ccc4c(c3)OCO4)cc2CC(=O)N([C@@H](C)CO)C[C@@H]1C,-0.7
C=CCOC(=O)[C@@H]1[C@H]2C(=O)O[C@H](c3ccccc3)[C@H](c3ccccc3)N2[C@H](c2ccc(OCCOC(=O)[C@@H]3C[C@@H]4C(=O)N5CCC[C@H]5C(=O)N4[C@@H]3c3ccc(O)cc3)cc2)[C@@]12C(=O)Nc1ccc(I)cc12,0.5
C[C@H](CO)N1C[C@H](C)[C@H](CN(C)Cc2ccc3c(c2)OCO3)Oc2ccc(NC(=O)Cn3cnnn3)cc2CC1=O,-0.4
O=C1O[C@H](c2ccccc2)[C@H](c2ccccc2)N2[C@H]1[C@@H](C(=O)N1CCCCCCC1)[C@]1(C(=O)Nc3ccccc31)[C@H]2c1ccc(O)cc1,-0.5

(list continues)
SMILES | A1 apoptosis 2
O=C1CSC(c2ccccc2)N1c1ccccc1 (stereo not drawn) | 0.6
C[C@@H]1CCCCO[C@@H](CN(C)C(=O)CCCN(C)C)[C@@H](C)CN([C@@H](C)CO)C(=O)c2cc(N(C)C)ccc2O1 | -0.2
C[C@@H]1CN([C@H](C)CO)C(=O)c2cc(NC(=O)CCC(F)(F)F)ccc2O[C@@H]1CN(C)C(=O)Nc1ccccc1 | 1.4
C[C@@H]1CN([C@H](C)CO)C(=O)c2cc(NC(=O)Cc3cn(C)c4ccccc34)ccc2O[C@H]1CN(C)C(=O)NC1CCCCC1 | 0.5
COc1ccc(NC(=O)Nc2cccc3c2O[C@@H](CN(C)Cc2ccc(C(=O)Nc4ccccc4N)cc2)[C@@H](C)CN([C@H](C)CO)C3=O)cc1 | -1.0
COc1cc(/C=C/C=N/NC(=O)c2ccc(C(=O)NO)cc2)ccc1O | -0.8
Cc1ccc(S(=O)(=O)N(C)C[C@H]2Oc3ccc(NS(=O)(=O)c4cccs4)cc3C(=O)N([C@H](C)CO)C[C@@H]2C)cc1 | -0.5
O=C(N1CCCCC1)[C@@]1(Cc2ccccc2)N=C(c2ccc(OCCCO)cc2)O[C@H]1c1ccccc1 | -0.5
C[C@@H]1CCCCO[C@@H](CN(C)C)[C@@H](C)CN([C@H](C)CO)C(=O)c2cc(NC(=O)Cc3ccccc3)ccc2O1 | -0.9
C[C@@H]1CN([C@@H](C)CO)C(=O)Cc2cc(NC(=O)Nc3ccc(F)cc3)ccc2O[C@@H]1CN(C)Cc1ccc(C(=O)O)cc1 | 1.3
C[C@@H]1CN([C@@H](C)CO)C(=O)Cc2cc(NC(=O)Nc3ccc(F)cc3)ccc2O[C@H]1CN(C)S(=O)(=O)c1cn(C)cn1 | -0.1
C[C@@H]1CCCCO[C@H](CN(C)C(=O)Nc2cccc3ccccc23)[C@H](C)CN([C@@H](C)CO)C(=O)c2cc(NC(=O)Cc3ccccc3)ccc2O1 | -1.0
O=C(NO)c1cccc(C(=O)N/N=C/c2ccc(O)cc2Br)c1 | -4.1
COc1ccc(-c2cnc3c(c2)C(=O)N([C@H](C)CO)C[C@H](C)[C@H](CN(C)Cc2ccc(F)cc2)O3)cc1 | 0.5
C[C@@H]1CCCCO[C@@H](CN(C)Cc2ccc(C(=O)O)cc2)[C@@H](C)CN([C@H](C)CO)C(=O)c2cc(NC(=O)Nc3ccc(F)cc3)ccc2O1 | 1.2
Cc1noc(C)c1S(=O)(=O)Nc1ccc2c(c1)C(=O)N([C@H](C)CO)C[C@H](C)[C@H](CN(C)Cc1ccc(-c3ccccc3)cc1)O2 | -0.2
COc1ccc(S(=O)(=O)N(C)C[C@H]2Oc3ccc(NS(=O)(=O)c4ccc(C)cc4)cc3CC(=O)N([C@H](C)CO)C[C@@H]2C)cc1 | -0.6
CC(C)NC(=O)N(C)C[C@H]1Oc2c(NC(=O)C3CCOCC3)cccc2C(=O)N([C@@H](C)CO)C[C@@H]1C | 0.6
COc1ccc(NC(=O)Nc2ccc3c(c2)C(=O)N([C@H](C)CO)C[C@H](C)[C@H](CN(C)Cc2ccccc2)OCCCC[C@@H](C)O3)cc1 | -1.3
C[C@@H]1CN([C@H](C)CO)C(=O)c2cc(NC(=O)c3ccccc3)ccc2O[C@@H](C)CCCCO[C@H]1CN(C)C(=O)Nc1cccc2ccccc12 | 2.3
